PINK1 modulator = changes PINK1 expression. hit rate 0.2% among 410,000. PINK1 immunofluorescence, high-content cytometry, 24 h. Potency, µM (titrated, usually from 76.6 µM), for inactives: top-dose activation (PINK1 increase), actives largely listed as activators. AID 624263; active = well fitted activation curve with a large enough effect; inconclusive = small, poorly fitted or top-dose-only effect; inactive = flat fitted curve, though single readings scatter; cell line not stated here;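 note: potency is the fitted concentration of half-maximal effect; % of control where 0% means no effect; nearly all actives have a fitted effect of over 65% in size; a mitochondrial uncoupler was the plate control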
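Measures PINK1 amount and localization on or inside mitochondria by immunofluorescence. Stable cells get compounds at 5 concentrations for 24 hours before fixation and staining; CCCP controls included.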
Six1-Eya2 blk = blocks human Six1 binding to Eya2; Q15475+O00167; AlphaScreen GST-Six1/His-Eya2 binding, biochemical; hits give low values; control for the full effect not named in the record; activity change, % (concentration not given with the values); hit rate 0.56% among 360,000; in the data active = activity change below about -65%; inconclusive = about -30% to -65%; inactive = above about -30%; note: % is set by controls: 0 for no effect and ±100 for the full control effect
Target sequence (O00167 whole entry, looked up): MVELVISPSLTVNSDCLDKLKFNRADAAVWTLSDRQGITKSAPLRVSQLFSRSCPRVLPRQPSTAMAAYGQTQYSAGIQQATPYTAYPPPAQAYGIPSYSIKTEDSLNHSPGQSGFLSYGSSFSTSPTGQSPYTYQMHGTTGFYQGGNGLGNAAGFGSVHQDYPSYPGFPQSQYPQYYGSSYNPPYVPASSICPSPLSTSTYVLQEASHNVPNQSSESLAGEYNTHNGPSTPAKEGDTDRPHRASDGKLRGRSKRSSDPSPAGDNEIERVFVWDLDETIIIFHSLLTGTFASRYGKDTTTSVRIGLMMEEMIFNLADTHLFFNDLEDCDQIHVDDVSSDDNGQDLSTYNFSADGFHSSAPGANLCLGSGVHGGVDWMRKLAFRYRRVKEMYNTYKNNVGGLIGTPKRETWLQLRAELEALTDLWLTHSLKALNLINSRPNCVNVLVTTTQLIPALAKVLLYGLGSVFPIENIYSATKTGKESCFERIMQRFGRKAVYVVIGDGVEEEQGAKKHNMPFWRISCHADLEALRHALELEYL
Target sequence (Q15475 whole entry, looked up): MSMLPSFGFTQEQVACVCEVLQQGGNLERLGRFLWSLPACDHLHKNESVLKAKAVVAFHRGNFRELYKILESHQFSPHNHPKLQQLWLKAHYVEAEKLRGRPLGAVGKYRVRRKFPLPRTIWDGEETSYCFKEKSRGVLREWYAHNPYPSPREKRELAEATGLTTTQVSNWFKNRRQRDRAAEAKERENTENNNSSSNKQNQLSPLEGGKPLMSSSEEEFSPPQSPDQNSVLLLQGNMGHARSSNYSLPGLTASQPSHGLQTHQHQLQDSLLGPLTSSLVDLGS
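Six1/Eya2 binding was read as AlphaScreen signal after compounds were pinned into GST-Six1 plus His-tagged Eya2 (5X stock 250/500 nM) in pH 8.0 Tris/NaCl/TCEP buffer, beads added, then incubated 1 h, 37 C, dark.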
D2 ag = human D2 receptor agonism in beta-arrestin assay | hit rate 0.084% among 360,000 | activation, % (test concentration not listed) | DiscoveRx PathHunter D2 beta-arrestin, luminescence, 90 min; 100% = 57 uM dopamine signal; in the data active = activation above about 40%; inconclusive = about 15% to 40%; inactive = below about 15%; note: compound concentration not given in the record; the text of the record calls up to 30% inactive
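Agonist mode: compounds alone added to overnight-plated D2 PathHunter cells for 90 min at 37 C, with 57 uM final dopamine (EC100) defining full response. Beta-arrestin recruitment detected by chemiluminescent reagent, read after 1 h at ambient temperature.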
TRPML1 ag = agonists of human TRPML1 channel; TRPML1-expressing cells, Ca2+ dye fluorescence, FDSS; host cell line not named in the record; reference of the full effect not given here; activation, % (concentration not given with the values); hit rate 0.12% among 410,000; AID 624414; in the data active = activation above about 50%; inconclusive = about 30% to 50%; inactive = below about 30%; note: 0% is about no effect; the text of the record puts the active cut at 80%
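Tetracycline-induced TRPML1-DL cells are seeded and incubated overnight before loading with a no-wash Ca2+ dye and quencher. Agonist activity is taken from the 110 s fluorescence read following compound pin-transfer on an FDSS, before EC80 54-4 challenge.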
TRPML1 blocker = blocks the human TRPML1 channel; TRPML1-inducible cells, Ca2+ dye fluorescence, FDSS; hits give low values; inhibition of EC80 agonist-evoked calcium signal; hit rate 0.02% among 390,000; Q9GZU1; activity change, negative = inhibition, % (concentration not given with the values); in the data active means activity change below about -50%; inconclusive means about -30% to -50%; inactive means above about -30%;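 note: stimulus is agonist 54-4 at its EC80 concentration; % is set by controls: 0 for no effect and ±100 for the full control effect; compound concentration not given in the record; the text of the record puts the active cut at -80%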
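TRPML1-DL cells, Tet-induced overnight (~16 h, 37 °C) at 1,500 cells/well, were loaded with Ca8 no-wash dye plus quencher for 45-90 min at room temperature. Compounds were pinned during FDSS kinetic reading; agonist 54-4 at EC80 (4 uM final) then added.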
CtBP-E1A inh = inhibitors of CtBP/E1A interaction | AlphaScreen GST-E1A/His-CtBP binding, 1536-well; hits give low values; control for the full effect not named in the record | activity change, % (concentration not given with the values) | hit rate 0.49% among 340,000 | AID 651724; in the data active means activity change below about -65%; inconclusive means about -30% to -65%; inactive means above about -30%; note: % is set by controls: 0 for no effect and ±100 for the full control effect
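AlphaScreen with 125 nM GST-E1A and 125 nM His-CtBP (5X stocks) in Tris pH 8.0, 300 mM NaCl, BSA, Tween 20, TCEP. Compounds preincubated 2 h at 37 deg C, then glutathione donor/nickel acceptor beads added for 1 h at 37 deg C in dark.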
* marks the source's active call; other numbers are inactive results; u = inconclusive; x = no result given; [ ] = dose if it differs, or a comment.

SMILES	PINK1 modulator	Six1-Eya2 blk	D2 ag	TRPML1 ag	TRPML1 blocker	CtBP-E1A inh
O=C(Cn1c(C(=O)NCC2CCCO2)cc2sccc21)c1ccccc1 (stereo unspecified)	-0.9%[38.3 µM]	-1.2	-1.8	1.1	27.5	-3.2
CC(Sc1cccc[n+]1[O-])C(=O)Nc1ccc(Oc2ccccc2)cc1 (stereo unspecified)	1.0%	0.7	-0.3	-0.5	-6.5	5.7
COC(=O)C1=C(C)NC(=O)NC1c1cn(-c2ccccc2)nc1-c1cccs1 (stereo unspecified)	0.6%	-3.7	-1.9	0.4	1.8	-1.2
CCOc1ccc(NC(=O)CC2C(=O)N(CC)C(=S)N2CCNC(C)=O)cc1 (stereo unspecified)	-1.0%	-3.6	0.6	0.3	10.5	17.9
CCOC(=O)[C@]12CCCC=C1N(Cc1cccc3ccccc13)C(=O)[C@H](CC(=O)NCCCN1CCCC1=O)C2	0.3%	-6.4	x	-0.8	x	-15.5
Cc1cccc(NC(=O)C2C3C=CC(C4CC34)C2C(=O)O)c1 (stereo unspecified)	1.2%	1.7	-1.9	-0.4	-7.7	-0.5
Cn1nc(C(=O)OCC(=O)c2ccc(Cl)cc2)c2ccccc2c1=O	1.0%	9.6	-0.5	2.7	-7.0	-0.6
COc1ccc(N2C(=O)c3ccccc3NC2c2ccc(OC)c(Cn3nnc4ccccc43)c2)cc1 (stereo unspecified)	-3.6%	-5.3	-2.5	0.8	-4.8	-6.5
O=C(COC(=O)CNC(=O)c1ccccc1F)Nc1cccnc1Cl	-0.4%	18.9	-0.4	-0.3	-0.8	-8.0
COc1ccc([C@H]2CC(=O)C=C(c3ccccc3)C2)cc1OC	3.8%	13.8	1.0	1.7	-8.7	21.6
Nc1nonc1-c1nc2ccccc2n1CC(=O)N/N=C/c1ccc(-c2cccc(C(=O)O)c2)o1	1.6%	u	-1.7	-0.3	0.2	-12.6
CC1CCCN(c2nc(NCc3ccco3)nc(N)c2[N+](=O)[O-])C1 (stereo unspecified)	-0.1%	-14.2	2.0	6.9	0.3	-23.3
COCCN(CC(=O)NC1CCCCC1)C(=O)CSc1nc2ccccc2o1	-1.0%	7.4	0.4	0.2	38.6	1.2
Cc1ccc(S(=O)(=O)c2cc3c(=O)n4ccccc4nc3n(CC3CCCO3)c2=N)cc1C (stereo unspecified)	5.1%	23.1	-7.3	0.7	0.1	0.0
COCCOC(=O)c1c(NC(=O)CN2CCOCC2)sc(C(N)=O)c1C	0.5%	-3.1	2.0	0.0	-1.1	-3.5
CC1CCN(C(=S)c2cccc([N+](=O)[O-])c2)CC1	-3.7%	2.5	-2.6	2.9	-9.6	-2.1
COc1ccc(Nc2cc(C)c3cc(NC(=O)c4cc(OC)cc(OC)c4)ccc3n2)cc1	2.4%	x	x	-0.6	-9.0	x
Cn1c(=O)c2c(nc(N3CCOCC3)n2CCCNC2=NCCCCC2)n(C)c1=O	x	-1.6	-2.0	-0.1	2.1	4.5
CC1(C(=O)N2CCCCC2)CCN1C(=O)C1(c2ccccc2)CC1 (stereo unspecified)	1.1%	0.2	-3.7	-0.6	x	0.2
CC(C)c1nnc(NC(=O)CC(=O)Nc2ccccc2C(=O)O)s1	-1.8%	11.4	-0.8	0.2	-21.4	-7.7
C=C(C)CSc1nc(N)c(C#N)c(-c2ccc(C)cc2)c1C#N	x	3.0	-2.9	-0.4	-3.8	-3.6
COCCNC(=O)c1ccc2c(c1)nc(C)n2-c1cc(OC)c(OC)c(OC)c1	0.7%	-2.7	2.1	0.8	0.4	-0.7
Cc1c(Cl)cccc1NC(=O)CNCc1ccccc1F	-0.2%	0.8	1.9	-0.4	-3.9	5.2
CCCCC(CC)Cn1c(O)c(/C=C2\C=NN=C2c2ccccc2)sc1=S (stereo unspecified)	-2.2%	-25.9	-2.5	0.3	-7.1	21.7
COc1ccc(S(=O)(=O)N(CC(=O)NCC2CCCO2)c2ccc(F)cc2)cc1OC (stereo unspecified)	1.8%	0.7	0.3	-0.1	18.5	-10.2
CCN(CC(=O)Nc1c(C(=O)OC)[nH]c2ccccc12)c1ccc2c(c1)OCO2	-2.5%	u	1.9	3.6	34.4	u
N#Cc1nc(COc2ccccc2)oc1NCCCn1ccnc1	0.0%	-15.4	-2.1	-0.7	4.1	2.0
CC(C)CC1C(=O)N(Cc2cn(CC3CCCCC3)nn2)CCS(=O)(=O)N1Cc1ccc(-c2cccc(CO)c2)cc1 (stereo unspecified)	1.5%	-1.5	3.3	1.0	-10.5	-24.4
COc1ccc(CCNC(=O)COc2ccc(S(=O)(=O)N3CCOCC3)cc2)cc1OC	x	-1.6	-1.2	-0.1	6.1	2.1
CC1=C(C(=O)OCC(C)C)C(c2ccc(OCc3ccccc3)cc2)N2C(=O)CCSC2=N1 (stereo unspecified)	5.5%	x	x	2.8	-25.9	x

Some entries already given, reduced to CtBP-E1A inh, D2 ag and TRPML1 ag:
smiles | CtBP-E1A inh | D2 ag | TRPML1 ag
COCCOC(=O)c1c(NC(=O)CN2CCOCC2)sc(C(N)=O)c1C | -3.5 | 2.0 | 0.0
CC1CCN(C(=S)c2cccc([N+](=O)[O-])c2)CC1 | -2.1 | -2.6 | 2.9

Continued:
SMILES	PINK1 modulator	Six1-Eya2 blk	D2 ag	TRPML1 ag	TRPML1 blocker	CtBP-E1A inh
Cc1ccccc1CSCCNC(=O)c1ccc(Cl)c(S(=O)(=O)N2CCOCC2)c1	-0.1%	-3.1	0.9	-0.1	-6.4	0.2
COc1ccc(C2=NOC(Cn3nc(C(=O)NCC4CC4)cc3-c3ccccc3)C2)cc1 (stereo unspecified)	0.1%	-11.6	8.1	1.9	38.3	-0.4
CCc1cccc(C)c1NC(=O)CSc1nc2ccc(N3C(=O)c4ccccc4C3=O)cc2s1	10.3%	-0.9	-2.6	1.0	1.6	-3.6
COc1ccc(-c2cc(C(N)=O)nc(N3CCCCCC3)n2)cc1	0.3%	9.3	-4.9	-0.4	15.6	9.3
C=CCn1c(N)cc(=O)nc1SCC(=O)Nc1ccccc1	0.2%	14.6	-0.5	0.3	0.8	11.1
Cc1sc2ncnc(SCC(=O)c3cccs3)c2c1C	16.0%	2.7	6.6	-0.1	2.6	-3.3
CN(CC(=O)Nc1sccc1C#N)S(=O)(=O)c1ccc(F)cc1	-0.1%	3.6	-0.5	0.2	-12.6	-3.8
COc1ccc(C(=O)N2CCC(C(N)=O)CC2)cc1S(=O)(=O)N1CCCC1	0.2%	2.5	-0.6	3.2	10.1	11.8
CCN1CCN(C(c2ccc(F)cc2)c2sc3nc(-c4ccco4)nn3c2O)CC1 (stereo unspecified)	0.8%	x	x	2.6	-12.3	x
Nn1c(COc2ccccc2)nnc1SCc1cc(=O)[nH]c2ccccc12	-1.3%[38.3 µM]	-7.0	-1.7	0.2	-22.0	-9.7

Among those listed so far, two have an NH in an aromatic ring.
SMILES	PINK1 modulator	Six1-Eya2 blk	D2 ag	TRPML1 ag	TRPML1 blocker	CtBP-E1A inh
CCN(CC(=O)Nc1c(C(=O)OC)[nH]c2ccccc12)c1ccc2c(c1)OCO2	-2.5%	u	1.9	3.6	34.4	u
Nn1c(COc2ccccc2)nnc1SCc1cc(=O)[nH]c2ccccc12	-1.3%[38.3 µM]	-7.0	-1.7	0.2	-22.0	-9.7

The list continues:
SMILES	PINK1 modulator	Six1-Eya2 blk	D2 ag	TRPML1 ag	TRPML1 blocker	CtBP-E1A inh
Cc1ccc(NC(=O)Cc2ccc(-n3c(C)nc4cccnc43)cc2)c(Cl)c1	0.4%	x	x	1.8	-1.7	x
CS(=O)(=O)N(CC(=O)Nc1ccccc1C(=O)NCc1ccccc1)c1ccc2c(c1)OCCO2	0.9%[38.3 µM]	-0.4	-0.2	1.9	22.6	-1.1
Cc1ccc(Nc2cc(C)nc3nc(C)nn23)c(C)c1	-1.8%	8.3	-1.0	-0.2	-9.1	0.0
COC(=O)CSc1nc2sc3c(c2c(=O)n1-c1ccccc1)CCN(C)C3	2.3%	3.9	0.9	0.6	16.7	-10.1
COc1ccc(NC(=O)CCNC(=O)c2ccccc2Cl)cc1OC	1.1%	8.5	-5.1	x	x	3.5
Cc1ccc(C(=O)NCCc2nnc3ccc(SCC(=O)Nc4ccccc4F)nn23)cc1	1.5%	2.6	6.4	1.4	15.7	-6.1
CCn1c(SCc2ccc(Cl)cc2)nc2nc3c(cc2c1=O)CCCC3	u	4.1	-4.4	0.6	8.2	0.6
O=C(Cc1ccc(S(=O)(=O)N2CCCC2)s1)NC1CCCCCC1	-2.6%	-4.3	-1.6	-0.6	16.0	-2.7
CCOc1ccccc1NC(=O)NCc1noc2ccc(C)cc12	-1.3%	x	x	1.2	-5.9	x
COc1ccc(C(=O)Nc2ccc(C(=O)O)cc2NC(=O)c2ccc(OC)cc2)cc1	0.9%	10.4	-3.6	0.4	0.4	x
CCCCN1C(=O)CN(C2CCCCCC2)C(=O)C1c1ccc(OCC)c(OC)c1 (stereo unspecified)	1.0%	x	x	-0.2	-6.8	x
Nc1nc(SCc2ccc(F)cc2)n[nH]1	1.7%	3.0	-3.0	0.2	-0.4	5.1
COc1ccc([C@@H]2[C@@H]3C(=O)N(C(C)(C)C)C(=O)[C@@H]3[C@]3(C)C(=O)N(c4cccc(F)c4)C(=O)N23)cc1	0.2%	8.6	-1.2	-0.4	-8.4	4.2
O=C(Nc1nnc(-c2ccc(F)cc2)s1)c1c(F)cccc1Cl	2.0%	-0.5	-7.9	0.6	7.5	-2.8
COc1ccc(C(=O)Cc2cnn(-c3ccccc3)c2)c(O)c1	8.1%	7.6	-2.0	0.3	7.6	19.7
O=C(Nc1ccc2c(c1)OCO2)C1COc2ccccc2O1 (stereo unspecified)	-2.2%	1.5	0.2	4.1	-19.1	-3.4
CSc1cccc(NC(=O)Cn2nnc(C(=O)NCCc3ccccc3)c2N)c1	0.5%	x	x	-0.2	-7.7	x
COc1ccc(NS(=O)(=O)c2cc([N+](=O)[O-])ccc2N/N=C\c2c(C)[nH]c3ccccc23)cc1	2.9%	-2.0	-1.2	0.4	7.0	-0.5
O=C(Nc1ccc(N2CCCCC2)cc1)c1cc([N+](=O)[O-])cc([N+](=O)[O-])c1	2.7%	-6.0	5.4	-0.4	8.9	-17.0
CCN(CC(=O)Nc1ccc2c(c1)OCCO2)C(=O)c1ccc([N+](=O)[O-])s1	0.0%	-3.7	6.3	-0.6	8.4	x
COc1cccc(C(=O)CN2CCN(S(=O)(=O)c3ccc(Cl)cc3)CC2)c1	-1.3%	x	x	-0.2	-8.4	x
O=C(OCC(=O)N1CCCC1=O)c1cccc(S(=O)(=O)N2CCOCC2)c1	4.6%	2.6	-1.8	1.1	-10.4	-8.2
Cc1cc(Nc2ccc(F)cc2)n2nc(C)nc2n1	-2.5%	-1.3	-2.4	1.7	6.8	2.6
